VDR inh: inhibitors of human vitamin D receptor; P11473; VDR-SRC2-3 peptide fluorescence polarization, 2 h; Potency, µM, for inactives: max response, negative = inhibition, actives largely listed as inhibitors; hit rate 0.93% among 400,000; AID 504847; active = well fitted inhibition curve with a large enough effect; inconclusive = small, poorly fitted or top-dose-only effect, or another doubt; inactive = no such curve, though single readings can be large or run the other way; also: series mostly up to about 120 µM
Target sequence (P11473 whole entry, looked up): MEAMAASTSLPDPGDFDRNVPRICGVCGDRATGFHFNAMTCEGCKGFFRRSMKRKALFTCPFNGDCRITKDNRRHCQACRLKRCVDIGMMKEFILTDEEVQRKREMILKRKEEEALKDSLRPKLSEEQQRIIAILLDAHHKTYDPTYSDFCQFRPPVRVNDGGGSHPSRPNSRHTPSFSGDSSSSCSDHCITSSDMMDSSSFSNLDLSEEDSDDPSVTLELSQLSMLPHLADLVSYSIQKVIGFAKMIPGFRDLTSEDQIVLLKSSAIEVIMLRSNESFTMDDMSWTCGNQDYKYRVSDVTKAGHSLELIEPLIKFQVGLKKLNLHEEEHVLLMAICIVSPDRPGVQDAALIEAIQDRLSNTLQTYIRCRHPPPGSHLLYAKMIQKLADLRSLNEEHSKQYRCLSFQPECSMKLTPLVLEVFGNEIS
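Inhibition of the VDR/SRC2-3 peptide interaction is quantified by fluorescence polarization. Compounds (23 nl, pintool) incubate with the reagents for 2 hours at ambient room temperature.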
* hit, by the source's call; ? = inconclusive. % is scaled to controls: 0 for no effect and ±100 for the full control effect; potency is read from the fitted curve at half-maximal effect. The list is partial; count on the stated rates, not on these rows.

SMILES | VDR inh
CCOc1ccc(N(CC)C(=O)COc2cc(=O)n(C)c3ccccc23)cc1 | -5%
CCOC(=O)N1CCN(C(=O)C2CC(c3cc(OC)ccc3OC)=NO2)CC1 (stereo not given) | -8%
Cc1nc(Nc2ccccc2)[nH]c(=O)c1CCC(C)C | 15%
Cc1cccc(Cn2nnc(C(=O)Nc3cc(C)ccc3C)c2N)c1 | -4%
Cc1cccc(C(=O)OC(C)CN2CCCC2)c1 (stereo not given) | 4%
COc1ccc(C(=O)C(C)OC(=O)COc2ccccc2)cc1 (stereo not given) | 11%
CNc1cnn(-c2ccccc2)c(=O)c1Cl | -19%
CCOC(=O)c1c(C)[nH]c(C)c1C(=O)COC(=O)c1ccc(O)cc1 | -14%
O=C(NCC1CCCO1)c1ccccc1NS(=O)(=O)c1cccc([N+](=O)[O-])c1 (stereo not given) | -7%
COc1cccc(C2=NOC(C(=O)NC(C)(C)C)C2)c1 (stereo not given) | -12%
CC(=O)c1ccc(NS(=O)(=O)c2ccc(Br)s2)cc1 | -19%
CC(CCN1CCC(CN2C(=S)NCC2Cc2ccccc2)CC1)c1ccccc1 (stereo not given) | 9%

A second format for part of the listing above.
VDR inh | SMILES
-19% | CNc1cnn(-c2ccccc2)c(=O)c1Cl
-4% | Cc1cccc(Cn2nnc(C(=O)Nc3cc(C)ccc3C)c2N)c1
-8% | CCOC(=O)N1CCN(C(=O)C2CC(c3cc(OC)ccc3OC)=NO2)CC1 (stereo not given)
-7% | O=C(NCC1CCCO1)c1ccccc1NS(=O)(=O)c1cccc([N+](=O)[O-])c1 (stereo not given)

New compounds follow.
SMILES | VDR inh
O=C(COC(=O)c1cc([N+](=O)[O-])ccc1N1CCOCC1)NC1CCCCC1 | 1%
Cc1nn(-c2ccccc2)c(C)c1CNC(=O)c1ccc(S(=O)(=O)NCc2ccco2)cc1 | 12%
Cc1c(Cl)cnn1CC(=O)NC1C(=O)N2C(C(=O)O)=C(CSc3nnnn3C)CSC12 (stereo not given) | -13%
Cc1c(NC(=O)COC(=O)CCc2c[nH]c3ccccc23)c(=O)n(-c2ccccc2)n1C | 16%
CCCCNCC1CCCO1 (stereo not given) | -11%
O=C(CCCCCCCC(=O)N1CCCC1)N1CCCC1 | 12%
CCOc1cc(N2CCOCC2)c(OCC)cc1NC(=O)CN1CCC(Cc2ccccc2)CC1 | 29%
CCOc1cc(C(=O)Nc2cc(C)ccc2C)ccc1OCC(=O)N1CCCCC1 | -9%
Cc1ccc(-n2c(=O)c3sccc3n(CC(=O)NC3CCCC3)c2=O)cc1 | -8%
CCOC(=O)c1ccc(S(=O)(=O)N2CCN(C)CC2)cc1 | -8%
COc1ccc(NC(=O)CSCc2ccc(C)cc2)cc1 | 0%
Oc1cccc(-c2nc3ncccn3c2Nc2cccc(C(F)(F)F)c2)c1 | -2%
COc1ccccc1N(CC(=O)Nc1ccc2c(c1)OCO2)S(=O)(=O)c1ccccc1 | -7%
CCc1ccc(-n2nnnc2SCC(=O)NNC(=O)c2ccco2)cc1 | -6%
CCOc1ccc(N2C(=O)CSC2=S)cc1 | -25%
Cn1c(NC(=O)c2ccc(Cl)cc2)cc(=O)n(C)c1=O | -21%
COc1ccc(-c2cc(=O)c3ccccc3s2)cc1 | 8%
CCN1CCN(c2ncc3c(n2)CC(c2ccc(OC)c(OC)c2)CC3=O)CC1 (stereo not given) | 0%
O=C(COc1ccc(Cl)cc1Cl)N1CCNC1=O | -16%
Cc1ccc(NC(=O)C(C)Sc2nc(-c3ccccc3)cc(=O)[nH]2)cc1 (stereo not given) | 5%
CCCCNC(=O)C1CCN(C(=O)N2CC(C)Oc3ccc(Cl)cc32)CC1 (stereo not given) | 23%
NNc1nc(Nc2ccc([N+](=O)[O-])cc2)nc(N2CCCCCC2)n1 | -9%
COc1ccc(CNC(=O)CSc2ncc3c(n2)-c2cc(Cl)ccc2N(Cc2ccccc2)S3(=O)=O)cc1 | 3%
CCCN(c1nc(C)cc(OC)n1)S(=O)(=O)c1ccccc1 | -6%
COc1ccccc1Cn1cc(C(=O)c2ccccc2)c(=O)c2cc(OC)c(OC)cc21 | 6%
CC[C@H]1C(=O)[C@@H](Cc2ccccc2)[C@@H]2CCN3C(=O)CCC[C@H]1[C@H]23 | 2%
CC(C)c1ccc(NC(=O)C2C3C=CC4(O3)C2C(=O)N(CCCN2CCOCC2)C4C(=O)NC2CCCCC2)cc1 (stereo not given) | -8%
O=C(CNC(=O)c1cccc(F)c1)NC1CC1 | 6%
OCc1cccc[n+]1Cc1ccccc1 | -10%
Oc1ccc(N=Nc2ccc3c(c2)OCCO3)c(O)c1 | 6%
Cc1ccc(C)c(NC(=O)COC(=O)c2c(C)nn(-c3ccccc3)c2C)c1 | -14%
O=C(COc1ccc(S(=O)(=O)NC2CCCCC2)cc1)NC1CCCCC1 | 0%
N/C(=N\OC(=O)c1ccccc1Cl)c1cccc([N+](=O)[O-])c1 | -8%
CCCOc1ccc2c3c(c(=O)oc2c1OCCC)CCCC3 | -9%
CCOC(=O)c1cnc2ccc(OCC)cc2c1NCc1ccccc1 | -18%
Cc1ccc2c(c1)N(CC(=O)Nc1ccccc1F)C(=O)CO2 | 7%

Six entries from above, ordered by the number in VDR inh, ascending.
SMILES | VDR inh
Cn1c(NC(=O)c2ccc(Cl)cc2)cc(=O)n(C)c1=O | -21%
O=C(NCC1CCCO1)c1ccccc1NS(=O)(=O)c1cccc([N+](=O)[O-])c1 (stereo not given) | -7%
O=C(COC(=O)c1cc([N+](=O)[O-])ccc1N1CCOCC1)NC1CCCCC1 | 1%
CC[C@H]1C(=O)[C@@H](Cc2ccccc2)[C@@H]2CCN3C(=O)CCC[C@H]1[C@H]23 | 2%
Cc1ccc2c(c1)N(CC(=O)Nc1ccccc1F)C(=O)CO2 | 7%
Cc1nc(Nc2ccccc2)[nH]c(=O)c1CCC(C)C | 15%

Next part
SMILES | VDR inh
CC(Nc1ccc(Br)cn1)c1cc(Cl)ccc1O (stereo not given) | -9%
CC(C)c1nc2sc3c(NCc4ccco4)ncnc3c2c2c1COC(C)(C)C2 | -2%
CCCCn1c(SCc2nnc(-c3ccccc3)o2)nc2c1c(=O)n(C)c(=O)n2C | 1%
CC(=O)Nc1cccc(C(=O)Oc2cccc(C)c2)c1O | -10%
CCOC(=O)CN1C2=NCCCN2c2ccccc21 | -6%
CC(C)(C)c1ccc(C2CC2C(=O)N/N=C\c2cc3ccccc3nc2Cl)cc1 (stereo not given) | 3%
COc1ccccc1NC(=O)c1sc2nc(-c3cc4ccccc4oc3=O)[nH]c(=O)c2c1C | 16%
COc1c(C(O)CC(C)C)ccc2c1C(=O)OCc1cc(C)cc(O)c1O2 (stereo not given) | -17%
Cc1nc2ccccc2n1CC(=O)NCCN1CCOCC1 | 16%
CC1=C(C(=O)Nc2ccc(CC(=O)NCc3ccccc3C)cc2)SCCO1 | 2%
COCCN(C(=O)COC(=O)CCCc1c[nH]c2ccccc12)c1c(N)n(Cc2ccccc2)c(=O)[nH]c1=O | -2%
FC(F)(F)c1cccc(NC(=S)NC2CCCC2)c1 | -3%
CC(=O)c1c(C)[nH]c(C(=O)OCC(=O)Nc2ccc(Cl)c(S(=O)(=O)N(C)C)c2)c1C | -1%
CC1CCC2(CC1)NC(=O)N(CC(=O)Nc1sc3c(c1C(N)=O)CCC3)C2=O (stereo not given) | -23%
Cc1ccc(N2CCN(c3nc4ccccc4n4nnnc34)CC2)c(C)c1 | -1%
COC(=O)CC[C@H](N)C(=O)O | -1%
NS(=O)(=O)c1ccc(N2N=C(c3ccccc3)CC2c2ccccc2)cc1 (stereo not given) | -8%
FC(F)(F)c1ccc(Cl)c(-n2c(-c3cc(-c4ccco4)[nH]n3)n[nH]c2=S)c1 | ?
CCOC(=O)N1CCC(NC(=O)c2cccs2)CC1 | 14%
COc1ccc(C(=O)Nc2ccc3ccccc3c2)cc1 | -9%
CCOC(=O)Cc1csc(NC(=O)Cc2ccc(Cl)cc2)n1 | -14%
COc1ccc(OC)c(S(=O)(=O)NCCc2sc(-c3ccc(C)cc3)nc2C)c1 | 3%
CCCC[C@H](CN[C@@H](CNC)[C@H](C)CC)NCCC12CCC(CC1)C2 | -15%
CC(=O)c1ccc(N2CCN(C(=O)C3CCCN(S(=O)(=O)c4cnc[nH]4)C3)CC2)cc1 (stereo not given) | -2%

Part of the list above, as a markdown table.
| SMILES | VDR inh |
| --- | --- |
| COc1ccccc1NC(=O)c1sc2nc(-c3cc4ccccc4oc3=O)[nH]c(=O)c2c1C | 16% |
| COc1c(C(O)CC(C)C)ccc2c1C(=O)OCc1cc(C)cc(O)c1O2 (stereo not given) | -17% |
| Cc1nc2ccccc2n1CC(=O)NCCN1CCOCC1 | 16% |
| CC1=C(C(=O)Nc2ccc(CC(=O)NCc3ccccc3C)cc2)SCCO1 | 2% |
| COCCN(C(=O)COC(=O)CCCc1c[nH]c2ccccc12)c1c(N)n(Cc2ccccc2)c(=O)[nH]c1=O | -2% |
| FC(F)(F)c1cccc(NC(=S)NC2CCCC2)c1 | -3% |

Next part
SMILES | VDR inh
COC(=O)c1ccccc1NC(=O)CSc1n[nH]c(-c2ccco2)n1 | -2%
COc1ccc(/C=N/Nc2nc(C(=O)O)cs2)cc1 | -17%
CCN1C(=O)c2cccc3c(S(=O)(=O)N(C(C)=O)c4ccc(OC(C)=O)cc4)ccc1c23 | -11%
c1ccc(C2CCC(N3CCN(c4ccccc4)CC3)CC2)cc1 (stereo not given) | -7%
CNC(=O)c1cccc2cccc(Sc3ccccc3C(=O)O)c12 | -3%
O=C(CN1C(=O)COc2ccccc21)NCc1ccccn1 | -5%
COc1ccc(S(=O)(=O)NCCc2sc(C)nc2C)cc1F | 2%
COCCCNC(=O)c1ccc(C2SCC(=O)N2Cc2ccco2)cc1 (stereo not given) | -5%
CC1CN(S(=O)(=O)c2ccc(F)cc2)C(C)N1C(=O)N1CCOCC1 (stereo not given) | 6%
CCCc1cc(-c2ccc(O)c(OCC)c2)c(C#N)c(N)n1 | -4%
O=C(CSc1nnc(-c2ccc(Cl)cc2)o1)c1ccc([N+](=O)[O-])cc1 | 19%
O=C(NNc1ncnc2c1cnn2-c1ccccc1)c1cccs1 | -3%
Cc1onc(-c2ccccc2)c1C(=O)N1CCN(Cc2ccc3c(c2)OCO3)CC1 | -19%
Cc1ccc(S(=O)(=O)N2CCCCC2)cc1C(=O)NC1CCCCC1 | -5%
Cc1ccc(NC(=O)Cn2c(=O)n(-c3ccc(CC(=O)NCC4CCCO4)cc3)c(=O)c3ccccc32)cc1 (stereo not given) | -4%
COc1ccc(CNC(=S)Nc2ccc(F)c(Cl)c2)cc1OC | -4%
COc1ccc(Cc2n[nH]c(=S)n2NC(=O)Nc2ccc(Cl)c(Cl)c2)cc1 | -12%
CC(C)CC1(C)N=C(c2ccccc2)C(=S)N1 (stereo not given) | 3%
Cc1ccc2c(CN3CCN(S(=O)(=O)/C=C/c4ccccc4)CC3)cc(=O)oc2c1 | -3%
CS(=O)(=O)Nc1cccc(C2=NN(C(=O)c3ccccc3Cl)C(c3ccccc3O)C2)c1 (stereo not given) | -19%
CC1CC1C(=O)Nc1nc(-c2cccs2)c(-c2cccs2)s1 (stereo not given) | -13%
CCCC(=O)NC(c1cccs1)c1cc(Cl)c2cccnc2c1O (stereo not given) | -8%
CC(=O)Nc1ccc(NC(=O)C(C)OC(=O)/C=C/c2cn(-c3ccccc3)nc2-c2cccnc2)cc1 (stereo not given) | -6%
c1ccc(C(c2cccs2)c2c[nH]c3ccccc23)cc1 (stereo not given) | 7%
O=C(CC(NS(=O)(=O)c1ccc(Cl)cc1)c1ccco1)N1CCc2ccccc21 (stereo not given) | -2%
O=C(c1cn(-c2ccccc2)nc1-c1cccc([N+](=O)[O-])c1)N1CCCCC1 | -11%
COc1cccc(-c2nc(CS(=O)(=O)CC(=O)NCc3ccc(C)cc3)c(C)o2)c1 | -12%
O=C(Nc1ccc(NC(=O)c2ccco2)cc1)c1cnccn1 | 4%
O=C(O)c1cc(N/N=C/c2ccc(N3CCOCC3)s2)ccc1Cl | -28%
CCCCn1cc(C(=O)c2cc(Br)ccc2O)cc(C#N)c1=O | -2%
c1ccc(CN=C2Nc3ccccc3CS2)nc1 | -6%
NS(=O)(=O)c1ccc(NC(=O)CSc2nnc(C3CC3)n2C2CC2)cc1 | -5%
CC(C)NC(=O)NC(=O)CN1C(=O)NC(Cc2c[nH]c3ccccc23)C1=O (stereo not given) | -20%
COc1cccc(-n2c(=O)n(Cc3ccccc3)c(=O)c3[nH]cnc32)c1 | 7%
CCC(Sc1nc2nccnc2c(=O)n1Cc1ccc(OC)cc1)C(=O)NC1CCCCC1 (stereo not given) | 14%
CCOC(=O)c1c(NC(=S)N2CCN(C)CC2)sc(C)c1-c1ccccc1 | -12%
CC(=O)Nc1ccc(S(=O)(=O)N2CCN(Cc3ccccn3)CC2)cc1 | 8%
O=C(CSc1nc2ncc(Cl)cc2[nH]1)NC1CCS(=O)(=O)C1 (stereo not given) | -9%
Cc1ccc2[nH]c(=O)c(COC(=O)C3CCCCC3)cc2c1 | -3%
CCOC(=O)C1=C(N)OC2=C(C(=O)CC(C)(C)C2)C1c1ccco1 (stereo not given) | -14%
C/C(=N\O)C1(C)N(O)C(C)(C)C(c2ccco2)=[N+]1[O-] (stereo not given) | -13%
O=C1CCc2cccc(O)c2N1 | -6%
CCN1C(=O)[C@H]2[C@@H](c3ccc(-c4ccccc4)cc3)N3CCC[C@@]3(C(=O)OC)[C@H]2C1=O | 6%

Screens as filed in PubChem BioAssay.
